VACV Venus inh = inhibitors of vaccinia virus (Venus reporter); Potency, µM (top dose mostly 36.5 µM), for inactives: at the highest dose activity change, negative = inhibition, hits mostly inhibitors; hit rate 0.46% among 330,000; Vaccinia virus Venus reporter expression, fluorescence; active means well fitted inhibition curve with a large enough effect; inconclusive means small, poorly fitted or top-dose-only effect; inactive means no such curve, though single readings can be large or run the other way; tested in A549 cells; note: nearly all actives have a fitted effect of over 30% in size; inactives centre near -10
Vaccinia mCherry = inhibitors of vaccinia virus infection (mCherry reporter signal); Vaccinia virus mCherry reporter infection, fluorescence; about a quarter of the inactives have no number; AID 720579; Potency, µM (doses to about 36.5 µM), for the others: top-dose activity change, negative = inhibition, usual class: inhibitors; hit rate 0.63% among 310,000; active = well fitted inhibition curve with a large enough effect; inconclusive = small, poorly fitted or top-dose-only effect; inactive = no such curve, though single readings can be large or run the other way; tested in A549 cells; note: nearly all actives have a fitted effect of over 35% in size; inactives centre near -10
Starred values were filed as active, the others as inactive; i = inactive; ? = inconclusive; / = not tested or not shown; & = joins results of further samples; [ ] = another dose, or the depositor's remark. % is set by controls: 0 for no effect and ±100 for the full control effect; potency is the fitted concentration of half-maximal effect. Random draw from the library; any-hit rate near 0.88%.

The opening 16 records, ahead of the listing:
SMILES | VACV Venus inh | Vaccinia mCherry
CCOC(=O)c1ccc(NC(=O)COC(=O)Cc2csc(-c3ccccc3)n2)cc1 | -3% | -17%
Cc1ccccc1C(=O)N(CC(=O)Nc1sc(C)c(C)c1C(N)=O)C1CCCC1 | -18% | -8%
CSc1ccc(Cl)c(C(=O)NCCOc2ccccc2)c1 | -11% | /
CC(C)CN1C=C2C(=O)C(C)(OC(=O)CCc3ccccc3)C(=O)C=C2C=C1c1ccc(C#N)cc1 (centres undefined) | -11% | 7%
FC(F)(F)c1nnc2ccc(N3CCOCC3)nn12 | -10% | -17%
N#Cc1ccc(S(=O)(=O)NC[C@H]2O[C@@H](n3cnc4c(N)ncnc43)[C@H](O)[C@@H]2O)cc1 | -2% | -10%
CC1Cc2cc(S(=O)(=O)N3CCN(C)CC3)ccc2N1C(=O)C1CC1 (centres undefined) | -18% | -11%
CCN(CC)C(=O)C(=O)c1cn(CC(=O)N2CCc3ccccc3C2)c2ccccc12 | -4% | i
CCOc1ccc(NS(=O)(=O)c2ccc(C(=O)NCC(c3ccccc3OC)N3CCCC3)cc2)cc1 (centres undefined) | -14% | -1%
O=C(COC(=O)CNC(=O)c1ccc(Cl)cc1Cl)NC1CC1 | -7% | -13%
O=C1OC(Oc2ccc(Br)cc2)(c2ccccc2)c2ccccc21 (centres undefined) | -5% | ?
Cc1cc(=O)[nH]c(=O)n1Cc1ccccc1 | -12% | i
COc1ccc(-c2csc(NC(C)c3nc4cc(Cl)c(N5CCCCC5)cc4n3CCOCCO)n2)cc1 (centres undefined) | ? | -15%
Cc1cccc(OCC(=O)Nc2ccc(S(=O)(=O)Nc3onc(C)c3C)cc2)c1C | -10%&4% | -3%
COc1ccc(CNC(=O)COC(=O)c2cc3ccccc3cc2O)cc1OC | -1% | -15%
COc1cc(NC(=O)CN2CC(c3ccccc3)CC2=O)cc(OC)c1 (centres undefined) | -5% | -5%

All compounds of this part (from the top)
SMILES | VACV Venus inh | Vaccinia mCherry
CCOC(=O)c1ccc(NC(=O)COC(=O)Cc2csc(-c3ccccc3)n2)cc1 | -3% | -17%
Cc1ccccc1C(=O)N(CC(=O)Nc1sc(C)c(C)c1C(N)=O)C1CCCC1 | -18% | -8%
CSc1ccc(Cl)c(C(=O)NCCOc2ccccc2)c1 | -11% | /
CC(C)CN1C=C2C(=O)C(C)(OC(=O)CCc3ccccc3)C(=O)C=C2C=C1c1ccc(C#N)cc1 (centres undefined) | -11% | 7%
FC(F)(F)c1nnc2ccc(N3CCOCC3)nn12 | -10% | -17%
N#Cc1ccc(S(=O)(=O)NC[C@H]2O[C@@H](n3cnc4c(N)ncnc43)[C@H](O)[C@@H]2O)cc1 | -2% | -10%
CC1Cc2cc(S(=O)(=O)N3CCN(C)CC3)ccc2N1C(=O)C1CC1 (centres undefined) | -18% | -11%
CCN(CC)C(=O)C(=O)c1cn(CC(=O)N2CCc3ccccc3C2)c2ccccc12 | -4% | i
CCOc1ccc(NS(=O)(=O)c2ccc(C(=O)NCC(c3ccccc3OC)N3CCCC3)cc2)cc1 (centres undefined) | -14% | -1%
O=C(COC(=O)CNC(=O)c1ccc(Cl)cc1Cl)NC1CC1 | -7% | -13%
O=C1OC(Oc2ccc(Br)cc2)(c2ccccc2)c2ccccc21 (centres undefined) | -5% | ?
Cc1cc(=O)[nH]c(=O)n1Cc1ccccc1 | -12% | i
COc1ccc(-c2csc(NC(C)c3nc4cc(Cl)c(N5CCCCC5)cc4n3CCOCCO)n2)cc1 (centres undefined) | ? | -15%
Cc1cccc(OCC(=O)Nc2ccc(S(=O)(=O)Nc3onc(C)c3C)cc2)c1C | -10%&4% | -3%
COc1ccc(CNC(=O)COC(=O)c2cc3ccccc3cc2O)cc1OC | -1% | -15%
COc1cc(NC(=O)CN2CC(c3ccccc3)CC2=O)cc(OC)c1 (centres undefined) | -5% | -5%
CCOC(=O)CON1C(=O)C(=O)N(OCC(=O)OCC)[C@H]2CCCC[C@H]21 | 18% | i
CCOc1ccc(CCNC(=O)c2ccc3nc(CC)c(CC)nc3c2)cc1 | -8% | -17%
COC(=O)C(C(=O)OC)c1ncccc1NS(=O)(=O)c1ccc(C)cc1 | -10% | -2%
O=C1[C@H]2[C@@H](c3ccc(Cl)cc3)N3C(=O)N(c4cccc(Cl)c4)C(=O)[C@@]3(Cc3ccccc3)[C@H]2C(=O)N1C1CCCCC1 | -21% | i
C/C(=N\Nc1ccccc1)c1c(O)[nH]c(=O)[nH]c1=O | 12% | -28%
CCn1c(=O)cc(N2CCCCC2)[nH]c1=O | -10% | -14%
Cc1cc(C)nc(NC(=O)/C=C/c2cccs2)c1 | 0% | -2%
COc1ccc(CCN(C)C(=O)c2ccc(S(=O)(=O)NCc3ccco3)cc2)cc1OC | -12% | -9%
CCOC(=O)CN(Cc1sccc1C)C(=O)Nc1ccc(OC)cc1OC | -12% | i
Later entries
SMILES | VACV Venus inh | Vaccinia mCherry
Cc1ccc(C)c2[nH]c(=O)c(C(c3nnnn3CCc3ccccc3)N3CCOCC3)cc12 (centres undefined) | -4% | /
COc1ccc(-n2c(Cc3cccn3C)nnc2SCC(=O)Nc2ccccc2OC)cc1 | 7% | 10%
Cc1cc(NC(=O)NCc2ccccc2)c(=O)n(Cc2ccc(F)cc2)c1 | -9% | i
Cn1c(SCC(=O)Nc2ccc3nc(SCC(=O)N4CCCC4)sc3c2)nnc1-c1ccc(N)cc1 | -20% | /
CCCCC[C@@H]1CCCCC[C@H](O)C[C@H](O)[C@@H](O)/C=C/C(=O)O1 | -13% | -14%
O=C(c1cnn(-c2ccccc2)c1-n1cccc1)N1CCN(C2CCCCC2)CC1 | -19% | -11%
Cc1ccc(NC2=C(Cl)C(=O)c3ccccc3C2=O)cc1 | -1% | -19%
CC(NC(=O)CN1c2cccc3cccc(c23)S1(=O)=O)c1ccc(S(N)(=O)=O)cc1 (centres undefined) | -13% | -14%
CCN1C(=O)C(CC(=O)NCCc2ccccc2)N(NC(=O)c2cccnc2)C1=S (centres undefined) | -6% | -15%
CC(=O)c1cccc(NC(=O)CCn2nc(C)c(S(=O)(=O)N(C)C)c2C)c1 | -6% | -7%
COc1ccc(CCN2CC(C(=O)NCC(c3ccccc3)N(C)C)CC2=O)cc1OC (centres undefined) | 0% | -4%
Nc1ncn(C2OC(CO)C(O)C2O)c(=O)n1 (centres undefined) | 10µM* | 10µM*
COc1cccc(N2C(=O)CSC23C(=O)N(Cc2ccccc2)c2ccccc23)c1 (centres undefined) | 11% | -2%
Cc1ccc(-n2ncc3c(NC4CCCCC4)ncnc32)cc1Cl | -12% | 0%
Cc1ccc(NC(=O)C2CCN(S(=O)(=O)c3c(C)noc3/C=C/c3ccco3)CC2)nc1 | -13% | -11%
COc1ccc(F)cc1-c1cc(C(=O)NCc2cccc(Cl)c2)[nH]n1 | -11% | i
CN1CCN(CC(=O)Nc2ccc([N+](=O)[O-])cc2Br)CC1 | 3% | -4%
CC(C)NC(=O)c1cc2c(-c3ccc(Cl)cc3)nn(C)c2s1 | -16% | i
CCc1ccc(CN(C(=O)c2ccc(OC)cc2)C2CCS(=O)(=O)C2)cc1 (centres undefined) | -21% | -16%
CCC(C)C(CO)NC(=O)/C=C/[C@H]1O[C@@H](n2cnc3c(NC(=O)c4ccccc4)ncnc32)[C@H](O)[C@@H]1O (some centres undefined) | -8% | 13%
CC(C)Oc1cccc(C2NC(=O)c3ccccc3O2)c1 (centres undefined) | -19% | -27%
COC(=O)C(Sc1ccc(Cl)cc1)C1SC(=S)N(Cc2ccccc2)C1=O (centres undefined) | -18% | -9%
CN(C)c1ccc(CNC(=O)c2ccc(Cn3c(SCc4ccccc4)nc4cccnc43)cc2)cc1 | -22% | -13%
Cc1cc(C)nc(/N=C(\NC(=O)C(C)(C)C)Nc2ccccc2)n1 | -8% | -14%
O=C(CSc1n[nH]c(-c2cccnc2)n1)Nc1ccc(Br)cc1 | 1% | -10%
New compounds follow
SMILES | VACV Venus inh | Vaccinia mCherry
COc1ccc(CCC(=O)OCC(=O)NCc2ccc(OC)c(OC)c2)cc1OC | -7% | -10%
CCN(CC)S(=O)(=O)c1ccc(C(=O)OCn2nnc3ccccc3c2=O)cc1 | -41% | /
Cn1nc(OCC(=O)O)cc1C(F)(F)F | -11% | i
O=C(NCC1CCCO1)C(c1cccs1)N(Cc1cccs1)C(=O)Cn1nnc(-c2cccs2)n1 (centres undefined) | -11% | i
CCc1ccc2oc(C(=O)NCCc3ccc(S(N)(=O)=O)cc3)cc(=O)c2c1 | -6% | i
COc1ccccc1-c1cc(C(=O)Nc2cc(Cl)ccc2O)no1 | 5% | 6%
CC1(C)C(c2ccccc2)=NC(c2cccnc2)=[N+]1[O-] | -7% | /
O=C(NCc1ccccn1)C1CCN(S(=O)(=O)N2CCCC2)CC1 | -3% | -14%
Cc1cccc(CN2C(=O)c3ccccc3Sc3ccc(C(=O)N4CCCC4)cc32)c1 | -18% | -19%
COc1ccc(N2CCN(C(=O)CSc3nc4[nH]ncc4c(=O)n3-c3cccc4ccccc34)CC2)cc1 | -20% | ?
Cn1c(=O)cc(N)n(Cc2ccccc2)c1=O | -16% | i
O=C1NN(c2cccc(Br)c2)C(=O)/C1=C\c1ccc(O)cc1 | -18% | -6%
CCc1cc(-c2onc(C)c2-c2cscn2)c(O)cc1OC | -5% | -9%
CCN(CC)C(=O)c1cnn(-c2ccccc2)c1NC(=O)c1ccco1 | -7% | -17%
CCc1nc2c(OCCOc3ccccc3)cccn2c1N(C)C(=O)c1cccs1 | -15% | -25%
CN(C)S(=O)(=O)c1cccc(COC(=O)CN2CCCCCC2=O)c1 | -2% | -6%
CSc1nnnn1-c1c(C)cc(C)cc1C | -7%[7.34 µM] | -1%[7.34 µM]
O=c1cccc2n1CC1CC2CN(C(c2ccccc2)c2sc3ncnn3c2O)C1 (centres undefined) | -7% | i
CCn1cc(C(=O)NCc2ccc(Cl)cc2)c(=O)c2cc(S(=O)(=O)N(C)C)ccc21 | -20% | ?
Cn1nc(C(=O)OCC(=O)N2CCc3ccccc32)c2ccccc2c1=O | -5% | -9%
Cc1cc(C)c(NC(=O)c2oc3c(c2C)-c2[nH]ncc2CC3)c(C)c1 | -1% | -20%
CC(C)(C)c1ccc(C(=O)c2c[nH]c(C(=O)NCC3CCCO3)c2)cc1 (centres undefined) | -22% | /
NC(=NC(=O)c1ccccc1)N1CCN(C(c2ccccc2)c2ccccc2)CC1 | -4% | i
N#Cc1c(/N=C/c2cccs2)sc2c1CCCCC2 | -25% | i
COc1ccccc1CCC(=O)OCC(=O)Nc1cc(C)nn1-c1ccccc1 | -6% | -13%
Further entries follow.
SMILES | VACV Venus inh | Vaccinia mCherry
CCOC(=O)N1CCN(C(=S)NC(=O)c2cc(Br)ccc2Cl)CC1 | -13% | -9%
CCN(CC)S(=O)(=O)c1ccc(NCCc2ccccn2)nc1 | 1% | 8%
COc1ccc(/C=C2\N=C(SC)SC2=O)cc1OC | 2% | /
O=C(NCc1ccco1)c1ccc2c(c1)N(Cc1ccccc1)C(=O)c1ccccc1S2 | -8% | -11%
CN(Cc1ccccc1)C(=O)c1ccc(NC(=O)Cc2cccc(NC(=O)C3CCCN(C(=O)CCc4ccccc4)C3)c2)cc1 (centres undefined) | ? | -14%
Cn1c(SCc2nc(-c3cccs3)no2)nnc1C1CCCCC1 | -11% | i
CC(=O)Nc1ccc2c(c1)C(N1CC3CCC(CC3)C1)c1ccccc1-2 (centres undefined) | -25% | 0%
O=C(CN1CCN(Cc2ccc(Cl)cc2)CC1)N/N=C/c1ccncc1 | -14% | i
Cc1nc2nc(SCC(=O)NCc3ccco3)nn2c(C)c1Cc1c(F)cccc1Cl | -28% | ?
O=C(c1cccc(C(F)(F)F)c1)c1c[nH]c(C(=O)NCCCN2CCOCC2)c1 | 2% | i
COCCCN1CN=C(NS(=O)(=O)c2ccc(C)cc2)NC1 | -5% | -15%
Fc1cccc(CSc2ccc(-c3cccs3)nn2)c1 | -11% | -9%
CN1C(=O)N(C)C(=O)C2(Cc3cc([N+](=O)[O-])ccc3N(C)C2)C1=O | -14% | -4%
Cc1cc(OCC(=O)N2CCC(C(N)=O)CC2)c2c(C)cc(=O)oc2c1 | -6% | 7%
COc1cccc(NC(=O)c2cc([N+](=O)[O-])ccc2NC(=O)CNCC2CCCO2)c1 (centres undefined) | 18% | -17%
N#CCC(=O)Nc1ccc(C(=O)OCC(=O)N2CCCC2=O)cc1 | -4% | -16%
COc1cc(/C=C(\C#N)c2nc3ccc(C)cc3[nH]2)ccc1OC(C)C | -13% | 5%
COc1ccc(CNC(=O)CSc2ncc3c(n2)-c2cc(Cl)ccc2N(Cc2ccccc2)S3(=O)=O)cc1OC | -23% | -15%
Cc1c(C#N)c(N)c(C(=O)c2ccccc2)n1Cc1ccccc1 | -15% | /
CC(NC(=O)Cn1c(=O)oc2cc(S(=O)(=O)N3CCCCCC3)ccc21)c1ccccc1 (centres undefined) | 0% | -5%
CCOC(=O)N1CCN(C(=O)c2oc3ccc(S(=O)(=O)N4CCOCC4)cc3c2C)CC1 | -10% | -8%
CCOC(=O)c1ccc(S(=O)(=O)NNC(=O)COc2ccccc2C)cc1 | -7% | -13%
O=C(OCc1cccc(C(F)(F)F)c1)c1ccc(-c2nnn(Cc3ccc(F)cc3)n2)cc1 | -5% | -1%
CCC(C)(C)n1nnnc1C(c1ccc(O)cc1)N1CCc2ccccc2C1 (centres undefined) | -4% | -7%
O=C(CCC(=O)c1cccs1)Nc1ccc(N2CCCCC2)cc1 | -7% | 3%
NC(=O)c1cc([N+](=O)[O-])c(Cl)cc1NCc1ccncc1 | -13% | -14%
N#CC1=C(Nc2ccccc2Cl)SC(c2ccncc2)NC1=O (centres undefined) | 7% | 9%

Screening data (PubChem BioAssay)
